Rango release inh – qHTS Assay for Inhibitors of RanGTP induced Rango (Ran-regulated importin-beta cargo) - Importin beta complex dissociation. 340,000 compounds, 0.071% hits. Potency, µM (highest dose often 46.1 µM), without a hit: at the top dose activity change, negative = inhibition. Snurportin-1 (Homo sapiens) + GTP-binding nuclear protein Ran (Homo sapiens) + Importin …. Biochemical FRET Rango-importin beta, RanGTP-induced dissociation; active means falling FRET ratio curve, often poorly fitted, with flat reads before Ran was added; inconclusive means other falling curves, or compound fluorescence or quenching; inactive means flat or rising ratio curve;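 further: potency means the concentration at half of the fitted maximal effect; % of control where 0% means no effect; nearly all actives have a fitted effect of over 45% in size; -100% = wells without RanGTP and RCC1; the record marks most hits as doubtful in a second field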
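Quantitative HTS using a FRET biosensor: 0.1 uM Rango, 0.25 uM importin beta, 0.6 uM Ran, 2 mM GTP, 0.2 uM RCC1 final, PBS with DTT, Tween-20 and BSA. Post-read taken 45 min after Ran addition.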
GLA inh pH 4.5 – qHTS Assay for Inhibitors of Human alpha-Galactosidase at pH 4.5 | AID 1467, 2008 | 230,000 tested, under 10 active | activity change, negative = inhibition, % at 105 µM | purified enzyme, 4-MU-alpha-Gal fluorescence, pH 4.5; inconclusive = small, poorly fitted or top-dose-only inhibition, or a rising curve; inactive = flat fitted curve, though single readings scatter; no compound was filed as active;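 further: 0% = full activity with enzyme and -100% = basal without enzyme; dose as in the result columns while the protocol names 77 µM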
Rango complex inh – qHTS Assay for Inhibitors of Rango (Ran-regulated importin-beta cargo) - Importin beta complex formation; Importin subunit beta-1 (Homo sapiens), Q14974; Rango CFP/YFP FRET sensor + importin beta, 45 min; 340,000 compounds, 0.031% hits; AID 540263, 2011; Potency, µM (highest dose often 92.2 µM), for inactives: at the highest dose inhibition of complex formation; active = rising FRET ratio curve, often small or poorly fitted; inconclusive = mostly compound fluorescence or quenching in the first reads; inactive = flat curves in all reads;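 further: potency means the concentration at half of the fitted maximal effect; 0% = DMSO wells and 100% = buffer wells lacking importin beta; nearly all actives have a fitted effect of over 15% in size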
Target sequence (Q14974 whole entry, looked up): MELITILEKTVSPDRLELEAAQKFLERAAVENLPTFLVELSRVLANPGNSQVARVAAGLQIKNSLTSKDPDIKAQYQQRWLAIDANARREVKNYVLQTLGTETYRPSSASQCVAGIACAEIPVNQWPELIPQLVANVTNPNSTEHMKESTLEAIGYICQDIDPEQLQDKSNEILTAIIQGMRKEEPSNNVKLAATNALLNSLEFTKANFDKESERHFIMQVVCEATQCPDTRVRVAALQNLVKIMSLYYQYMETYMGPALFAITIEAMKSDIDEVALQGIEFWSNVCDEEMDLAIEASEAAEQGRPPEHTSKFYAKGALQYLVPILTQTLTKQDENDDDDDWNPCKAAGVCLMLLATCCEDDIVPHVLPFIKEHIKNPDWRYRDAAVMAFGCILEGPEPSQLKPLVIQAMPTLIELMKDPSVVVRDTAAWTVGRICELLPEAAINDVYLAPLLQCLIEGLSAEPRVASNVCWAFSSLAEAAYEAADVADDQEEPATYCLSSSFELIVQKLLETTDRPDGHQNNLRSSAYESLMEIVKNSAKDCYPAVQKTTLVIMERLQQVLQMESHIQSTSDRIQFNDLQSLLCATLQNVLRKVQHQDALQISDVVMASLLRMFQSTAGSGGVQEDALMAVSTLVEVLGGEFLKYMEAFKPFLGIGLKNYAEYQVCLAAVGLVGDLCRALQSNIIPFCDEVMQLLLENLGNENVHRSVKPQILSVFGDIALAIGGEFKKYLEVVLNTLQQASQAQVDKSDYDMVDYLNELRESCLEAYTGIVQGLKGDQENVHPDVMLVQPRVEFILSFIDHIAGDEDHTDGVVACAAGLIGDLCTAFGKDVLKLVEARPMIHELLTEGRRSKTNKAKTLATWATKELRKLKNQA
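FRET biosensor Rango (snurportin 1 IBB between N-terminal EYFP and C-terminal Cerulean), 50 nM in PBS/1 mM DTT/0.02% Tween-20/0.1% BSA, preincubated 5 min RT with compound; 0.125 microM importin beta added, 45 min RT, CFP/YFP FRET ratio read.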
miR-21 reporter – qHTS Assay for Modulators of miRNAs and/orActivators of miR-21. HeLa miR-21 FLuc reporter, luciferase, 48 h. Potency, µM (titrated, usually from 38.3 µM), for inactives: top-dose reporter change, positive = more light. 340,000 tested, under 10 active; active = well fitted rising curve with a large enough effect; inconclusive = small, poorly fitted or top-dose-only effect; inactive = no such curve, though single readings can be large or run the other way;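 further: % of control where 0% means no effect; miR-21 action dims this reporter so a rising signal means less miR-21 action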
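HeLa miR-21-FLuc reporter line, endogenous miR-21; 2000 cells/well in DMEM/10% FBS; compound titration up to ~40uM final, 48 h, 37 degree Celsius; luciferase detection reagent, 15 min lysis, CCD luminescence.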
Active calls of the source: *; & = joins results of further samples. A portion of the library; count on the stated rates, not on these rows.

What do the screens show for `O=C(CSc1ccc2nnc(-c3ccc(Cl)cc3)n2n1)N1CCCc2ccccc21`?
Rango release inh: -19%; GLA inh pH 4.5: -3; Rango complex inh: -0.9%; miR-21 reporter: -11%

What do the screens show for `CN(c1ccccc1)S(=O)(=O)c1ccc(Cl)c(C(=O)OCC(=O)c2c(N)n(C)c(=O)n(C)c2=O)c1`?
Rango release inh: 11%; Rango complex inh: -1.4%

What do the screens show for `O=C(O)/C=C\C(=O)Nc1ccc(N2CCN(c3ccc(F)cc3)CC2)cc1`?
Rango release inh: -9%; GLA inh pH 4.5: 3; Rango complex inh: -4.0%; miR-21 reporter: 3%

How did O=C(CSc1nc(O)cc(=O)n1-c1ccccc1)Nc1ccccn1 do in these assays?
Rango release inh: 5%; GLA inh pH 4.5: 4; Rango complex inh: -1.3%; miR-21 reporter: 3%

What do the screens show for `CC(=O)c1cccc(-c2ccc(CN3C(CC(C)C)C(=O)N(Cc4cn(CC5CCCCC5)nn4)CCS3(=O)=O)cc2)c1` (stereo not given)?
Rango release inh: 6%; Rango complex inh: 0.5%

Results for CCCCCCc1ccc(-c2ncc(N)cn2)cc1 ?
Rango release inh: -3%; GLA inh pH 4.5: -1; Rango complex inh: 1.3%; miR-21 reporter: -42%

How did COc1cc(/C=C/C(=O)OCC(=O)Nc2ccc(NC(C)=O)cc2)cc(S(=O)(=O)N2CCc3ccccc32)c1OC do in these assays?
Rango release inh: -5%; GLA inh pH 4.5: -4; Rango complex inh: -0.1%; miR-21 reporter: -10%

Results for [O-][n+]1onc2c3cc(-c4ccccc4)nnc3ccc21 ?
Rango release inh: -5%; GLA inh pH 4.5: -2; Rango complex inh: -3.8%; miR-21 reporter: -6%

How did Cc1ccc(-c2nc3nc4ccccc4nc3n2Cc2ccco2)cc1 do in these assays?
Rango release inh: -3%; GLA inh pH 4.5: 3; Rango complex inh: inconclusive; miR-21 reporter: -18%

How did COc1nc(/C(N)=N/O)nc(N2CCCCC2)n1 do in these assays?
Rango release inh: 8%; GLA inh pH 4.5: 6; Rango complex inh: -0.3%; miR-21 reporter: -8%

How did CC(C)Oc1ccc(C(=O)NCC(=O)N2CCN(S(=O)(=O)/C=C/c3ccccc3)CC2)cc1 do in these assays?
Rango release inh: 8%; Rango complex inh: 1.2%

How did COc1ccc(S(=O)(=O)NCCCN2CCOCC2)c2ccccc12 do in these assays?
Rango release inh: -1%; GLA inh pH 4.5: 1; Rango complex inh: -7.5%; miR-21 reporter: 0%

How did CCOC(=O)C1C(=O)CC(C)(O)C(C(=O)OCC)C1c1ccccc1 (stereo not given) do in these assays?
Rango release inh: -15%; GLA inh pH 4.5: 2; Rango complex inh: 0.4%; miR-21 reporter: -2%

What do the screens show for `Cc1ccc(NC(=O)Cc2n[nH]c(=O)c3ccccc23)cc1S(=O)(=O)N1CCCCCC1`?
Rango release inh: -10%; Rango complex inh: -0.8%

What do the screens show for `Cn1cccc1-c1cc(C(=O)N2CCc3c([nH]c4ccccc34)C2c2ccccn2)[nH]n1` (stereo not given)?
Rango release inh: -8%; GLA inh pH 4.5: -4; Rango complex inh: -1.8%; miR-21 reporter: 28%

Ordered by length of the SMILES (highest first): some entries from above
How did COc1cc(/C=C/C(=O)OCC(=O)Nc2ccc(NC(C)=O)cc2)cc(S(=O)(=O)N2CCc3ccccc32)c1OC do in these assays?
Rango release inh: -5%; GLA inh pH 4.5: -4; Rango complex inh: -0.1%; miR-21 reporter: -10%

What do the screens show for `CN(c1ccccc1)S(=O)(=O)c1ccc(Cl)c(C(=O)OCC(=O)c2c(N)n(C)c(=O)n(C)c2=O)c1`?
Rango release inh: 11%; Rango complex inh: -1.4%

How did CC(C)Oc1ccc(C(=O)NCC(=O)N2CCN(S(=O)(=O)/C=C/c3ccccc3)CC2)cc1 do in these assays?
Rango release inh: 8%; Rango complex inh: 1.2%

What do the screens show for `Cc1ccc(NC(=O)Cc2n[nH]c(=O)c3ccccc23)cc1S(=O)(=O)N1CCCCCC1`?
Rango release inh: -10%; Rango complex inh: -0.8%

What do the screens show for `O=C(CSc1ccc2nnc(-c3ccc(Cl)cc3)n2n1)N1CCCc2ccccc21`?
Rango release inh: -19%; GLA inh pH 4.5: -3; Rango complex inh: -0.9%; miR-21 reporter: -11%

What do the screens show for `O=C(O)/C=C\C(=O)Nc1ccc(N2CCN(c3ccc(F)cc3)CC2)cc1`?
Rango release inh: -9%; GLA inh pH 4.5: 3; Rango complex inh: -4.0%; miR-21 reporter: 3%

How did Cc1ccc(-c2nc3nc4ccccc4nc3n2Cc2ccco2)cc1 do in these assays?
Rango release inh: -3%; GLA inh pH 4.5: 3; Rango complex inh: inconclusive; miR-21 reporter: -18%

Results for CCCCCCc1ccc(-c2ncc(N)cn2)cc1 ?
Rango release inh: -3%; GLA inh pH 4.5: -1; Rango complex inh: 1.3%; miR-21 reporter: -42%

Additional structures
What do the screens show for `O=C(COc1cccc(Cl)c1)NCC(c1cccs1)N1CCOCC1` (stereo not given)?
Rango release inh: 17%; Rango complex inh: -2.7%

How did Cc1nc(CCNS(=O)(=O)c2cccnc2)cs1 do in these assays?
Rango release inh: -12%; GLA inh pH 4.5: -10; Rango complex inh: -1.4%; miR-21 reporter: 0%

How did COc1cc(C(CCN2CCOCC2)c2c(OC)cc(OC)c3c2OC(=O)CC3c2ccc(N(C)C)cc2)cc(OC)c1OC (stereo not given) do in these assays?
Rango release inh: -2%; GLA inh pH 4.5: -3; Rango complex inh: -3.8%; miR-21 reporter: -5%

What do the screens show for `CN(Cc1ccc(F)cc1)C(=O)CNC(=O)c1ccc2c(c1)OCO2`?
Rango release inh: -7%; Rango complex inh: -0.9%

Results for CSc1nc2ccccc2n1CC(=O)Nc1c(C)cccc1C ?
Rango release inh: 1%; GLA inh pH 4.5: 5; Rango complex inh: -1.4%; miR-21 reporter: 4%

How did COc1ccc(CCNC(=O)c2ccc3ccccc3n2)cc1 do in these assays?
Rango release inh: 0%; Rango complex inh: -0.4%; miR-21 reporter: -49%

What do the screens show for `O=c1c(-c2nc3ccccc3s2)cccn1Cc1ccc(Cl)cc1`?
Rango release inh: inconclusive; GLA inh pH 4.5: inconclusive; Rango complex inh: inconclusive; miR-21 reporter: -5%

What do the screens show for `OC(COC(c1ccc(Cl)cc1)c1ccc(Cl)cc1)CN1CCCC1` (stereo not given)?
Rango release inh: 16%; GLA inh pH 4.5: -1; Rango complex inh: 12%; miR-21 reporter: -17%

What do the screens show for `Nc1nnc(Cc2ccccc2F)s1`?
Rango release inh: -6%; GLA inh pH 4.5: 3; Rango complex inh: -0.3%; miR-21 reporter: 0%

How did CCCC(=O)N(Cc1cc(=O)[nH]c2ccccc12)c1ccc(OC)cc1 do in these assays?
Rango release inh: 1%; Rango complex inh: -3.9%; miR-21 reporter: -5%

How did CC(C)CNc1nc(SCC(=O)Nc2ccccc2)nc(N2CCOCC2)n1 do in these assays?
Rango release inh: -7%; GLA inh pH 4.5: -1; Rango complex inh: -0.9%; miR-21 reporter: -8%

What do the screens show for `Cc1ccccc1COC(=O)c1nn(-c2ccccc2)nc1N`?
Rango release inh: inconclusive; GLA inh pH 4.5: -3; Rango complex inh: 0.2%; miR-21 reporter: -27%&-29%

Results for COc1ccccc1NS(=O)(=O)c1cc(NC(=O)c2sc3cc(Cl)ccc3c2Cl)ccc1C ?
Rango release inh: 19%; GLA inh pH 4.5: 1; Rango complex inh: -0.9%; miR-21 reporter: 0%

How did O=C(COc1ccc2ccccc2c1)NNC(=O)Cc1cccc2ccccc12 do in these assays?
Rango release inh: 43%; GLA inh pH 4.5: -5; Rango complex inh: -2.6%; miR-21 reporter: -6%

Results for CC1=NN(/C(=N\c2nnc(C)s2)Nc2ccc(C(C)(C)C)cc2)[C@H](c2ccc(C)cc2)S1 ?
Rango release inh: 1%; GLA inh pH 4.5: -13; Rango complex inh: -2.6%; miR-21 reporter: 2%

What do the screens show for `CCOC(=O)c1sc2nc(C)cc(C)c2c1N`?
Rango release inh: 9%; GLA inh pH 4.5: 12; Rango complex inh: 0.9%; miR-21 reporter: -47%

Results for NC(=O)c1ncn([C@@H]2O[C@H](CN=C3NS(=O)(=O)c4ccccc43)[C@@H](O)[C@H]2O)n1 ?
Rango release inh: -11%; Rango complex inh: 0.1%

What do the screens show for `COc1cccc(NC(=O)c2cc3ccccc3oc2=O)c1`?
Rango release inh: 1%; Rango complex inh: -0.2%; miR-21 reporter: -56%

What do the screens show for `CCC(C(=O)NC1CCCC1)N(Cc1ccc2c(c1)OCO2)C(=O)c1snc(C(N)=O)c1N` (stereo not given)?
Rango release inh: -6%; GLA inh pH 4.5: 4; Rango complex inh: inconclusive; miR-21 reporter: 1%

What do the screens show for `CN1CCC(N(C)S(=O)(=O)c2ccc(NC(=O)Cc3ccc(F)cc3)cc2)CC1`?
Rango release inh: -1%; Rango complex inh: -0.8%

How did O=C(c1ccco1)N1CCN(c2ccc([N+](=O)[O-])cc2F)CC1 do in these assays?
Rango release inh: -9%; Rango complex inh: -0.9%; miR-21 reporter: -22%

Results for CCN1CCCc2cc(CN(CCN3CCOCC3)C(=S)Nc3ccc(OC)c(Cl)c3)ccc21 ?
Rango release inh: -13%; GLA inh pH 4.5: -16; Rango complex inh: -4.0%; miR-21 reporter: -9%

Results for Cn1ncc(Br)c1C(=O)N/N=C/c1ccc(OS(=O)(=O)c2ccccc2)cc1 ?
Rango release inh: 10%; GLA inh pH 4.5: 10; Rango complex inh: 2.9%; miR-21 reporter: -16%

How did Cc1cccc(NC(=O)CN2CCN(C(=O)c3cccc(-n4cnnn4)c3)CC2)c1C do in these assays?
Rango release inh: 1%; Rango complex inh: -1.1%

Results for O=C(CN(C(=O)CCC(=O)Nc1nccs1)c1cccc(F)c1)NCCc1ccccc1 ?
Rango release inh: 0%; Rango complex inh: -3.3%; miR-21 reporter: -12%

How did N#C/C(=C\c1ccccc1OCc1ccc(C(=O)O)cc1)C(=O)Nc1ccc(O)cc1 do in these assays?
Rango release inh: -4%; GLA inh pH 4.5: -4; Rango complex inh: -2.7%; miR-21 reporter: -14%

Results for CC(Sc1cccc[n+]1[O-])C(=O)Nc1cccc(S(=O)(=O)N2CCOCC2)c1 (stereo not given) ?
Rango release inh: -3%; GLA inh pH 4.5: -10; Rango complex inh: 0.8%; miR-21 reporter: -7%

What do the screens show for `COc1ccccc1C(C)NCC(=O)NC(=O)NCc1ccco1` (stereo not given)?
Rango release inh: 16%; Rango complex inh: 0.2%

How did Cc1ccc(C(C(=O)NC2CCCCC2)N(C(=O)CCCC(=O)Nc2ccccn2)c2ccc3c(c2)OCCO3)cc1 (stereo not given) do in these assays?
Rango release inh: 4%; GLA inh pH 4.5: 0; Rango complex inh: 2.1%; miR-21 reporter: -10%

Results for CCCCN(C(=O)c1ccc(Cl)c(S(=O)(=O)N2CCOCC2)c1)c1c(N)n(CCC)c(=O)[nH]c1=O ?
Rango release inh: 13%; GLA inh pH 4.5: 14; Rango complex inh: 4.7%; miR-21 reporter: 1%

How did O=C(C(=O)N1CCN(Cc2ccc3c(c2)OCO3)CC1)c1c[nH]c2ccccc12 do in these assays?
Rango release inh: 19%; Rango complex inh: 0.4%; miR-21 reporter: 4%

What do the screens show for `O=C(CNc1ccccc1-c1ccccc1)NCc1ccccc1`?
Rango release inh: 14%; GLA inh pH 4.5: -4; Rango complex inh: -4.4%; miR-21 reporter: 7%

What do the screens show for `COC(=O)N/N=C/c1cn(CCCOc2ccccc2)c2ccccc12`?
Rango release inh: -8%; GLA inh pH 4.5: 4; Rango complex inh: -1.9%; miR-21 reporter: 13%

Results for CC1CCN(c2c(NCc3ccc(C(=O)N4c5ccccc5CC4C)cc3)c(=O)c2=O)CC1 (stereo not given) ?
Rango release inh: 33%; GLA inh pH 4.5: 14; Rango complex inh: -3.6%; miR-21 reporter: -4%
